From PubChem BioAssay
Vaccinia stage: blocks a specific stage of Vaccinia orthopoxvirus infection; Vaccinia-infected cells, mCherry/Venus stage reporter fluorescence; stronger effect = lower value; some inactives read as strong as hits; activity change (mCherry), % (concentration not given with the values); 89,000 tested, 0.01% active;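 active = mCherry past -33% and 40 or more points under the early reporter, replicates agreeing; inconclusive = past -33% without that gap or agreement; tested in A549 cells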;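 note: scaled between vehicle wells and reference inhibitor wells; 23 nL library stock went into each well; one replicate is shown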
Vaccinia stage Venus: second read-out of Vaccinia stage, no call of its own (marks repeat the call); activity change (Venus), %; measured here: Venus reporter, other viral stage;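 negative = less Venus signal; first of two replicates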
* marks the source's active call; other numbers are inactive results; ? = inconclusive; . = not tested or not shown. An excerpt; count on the stated rates, not on these rows.

Values run as follows: Vaccinia stage	Vaccinia stage Venus
[1] COc1cccc(NC(=O)N2CC(=O)N3[C@@H](CO)[C@@H](c4ccc(C#CC5CCCC5)cc4)[C@@H]3C2)c1
→ -16	-13
[2] Cc1cc(C(=O)Nc2ccc3c(c2)C(=O)N(C)[C@H]2CC[C@H](CC(=O)NCc4ccc(-c5ccccc5)cc4)O[C@H]2CO3)no1
→ -33	-16
[3] N#Cc1ccc(-c2ccc(C3[C@@H]4CN(C(=O)C5CC5)C[C@H]3N4)cc2)cc1 (stereo partly drawn)
→ ?	.
[4] CN1c2ccc(-c3ccccc3)cc2[C@@H]2[C@@H](CCN2C(=O)c2ccccc2)[C@@H]1CO
→ ?	.
[5] CNC[C@@H]1Oc2ccc(NC(=O)Cc3cn(C)c4ccccc34)cc2C(=O)N([C@@H](C)CO)C[C@H]1C
→ 11	17
[6] CN(C)CC#Cc1ccc([C@H]2[C@@H](CO)N3CCCCN(C(=O)CN(C)C)C[C@@H]23)cc1
→ 21	9
[7] C[C@@H]1CN([C@@H](C)CO)S(=O)(=O)c2ccc(-c3ccc(C(=O)N(C)C)cc3)cc2O[C@H]1CN(C)C(=O)C1CCOCC1
→ 5	2
[8] COc1ccccc1CN1CC[C@@H]2[C@H](CO)Nc3ccc(-c4cccc(C(=O)N(C)C)c4)cc3[C@@H]21
→ ?	.
[9] CN1CCN(C(=O)C[C@@H]2CC[C@H]3[C@@H](COc4ccc(NC(=O)c5cccs5)cc4C(=O)N3C)O2)CC1
→ 13	12
[10] COc1ccc(C(=O)N2C[C@H]3[C@@H](c4ccccc42)[C@@H](CO)N3Cc2ccc3c(c2)OCO3)cc1
→ -16	-17
[11] C[C@H]1CN([C@@H](C)CO)C(=O)c2cc(C#CC3CCCCC3)cnc2O[C@H]1CN(C)Cc1cncnc1
→ 6	2
[12] Cc1noc(C)c1NC(=O)N(C)C[C@@H]1Oc2ncc(C3=CCCC3)cc2C(=O)N([C@H](C)CO)C[C@@H]1C
→ 27	19
[13] O=C(C[C@@H]1C[C@@H]2c3cc(NC(=O)Cc4ccncc4)ccc3O[C@@H]2[C@H](CO)O1)NCc1ccc2c(c1)OCO2
→ 3	2
[14] O=C(N[C@H]1CC[C@H](CCn2cc(C3(O)CCCC3)nn2)O[C@@H]1CO)C1CCCCC1
→ -3	-11
[15] O=C(C[C@@H]1CC[C@@H]2[C@H](COC[C@H](O)CN2S(=O)(=O)c2ccc(F)cc2)O1)NCc1ccc(Cl)c(Cl)c1
→ ?	.
[16] COc1cccc(S(=O)(=O)N[C@@H]2CC[C@H](CC(=O)NCc3ccc(F)cc3)O[C@H]2CO)c1
→ -1	-6
[17] Cc1ccccc1-c1ccccc1[C@H]1[C@@H](CO)N(C(=O)c2cccc(F)c2)[C@H]1C#N
→ -17	-16
[18] Cc1cccc(S(=O)(=O)N(C)C[C@H]2OCc3cn(nn3)CCCC(=O)N([C@@H](C)CO)C[C@H]2C)c1
→ 5	7
[19] O=C(Nc1ccc(F)cc1)N1CC(=O)N2[C@H](C1)[C@@H](c1ccc(C#CC3CC3)cc1)[C@@H]2CO
→ -6	-4
[20] O=C(C[C@H]1C[C@H]2c3cc(NC(=O)Nc4ccc(C(F)(F)F)cc4)ccc3O[C@H]2[C@H](CO)O1)NCC1CC1
→ 15	10
[21] CCCNC(=O)[C@H]1[C@H](CO)[C@H]2Cn3c(ccc(-c4ccc(C(=O)N(C)C)cc4)c3=O)[C@H]2N1CCC
→ 23	6
[22] C[C@H]1CCCCO[C@@H](CN(C)C(=O)Nc2ccc(C(F)(F)F)cc2)[C@@H](C)CN([C@@H](C)CO)C(=O)c2cc(NS(=O)(=O)c3ccccc3)ccc2O1
→ -19	-19
[23] COc1ccc(S(=O)(=O)N(C)C[C@H]2OCCCC[C@@H](C)Oc3ccc(NS(=O)(=O)c4ccc(F)cc4)cc3C(=O)N([C@@H](C)CO)C[C@H]2C)cc1
→ ?	.
[24] Cc1cccc(S(=O)(=O)N[C@H]2CC[C@H](CCNC(=O)c3cnccn3)O[C@@H]2CO)c1
→ -11	-1
[25] O=C(Cc1ccccc1)N[C@@H]1C=C[C@H](CC(=O)N2CCCCC2)O[C@H]1CO
→ -5	8
[26] O=C(C[C@@H]1C[C@H]2c3cc(NC(=O)C4CCOCC4)ccc3O[C@H]2[C@H](CO)O1)NCc1ccc(Oc2ccccc2)cc1
→ -30	-25
[27] C[C@H]1CN([C@@H](C)CO)C(=O)c2cccc(NC(=O)C3CCOCC3)c2O[C@H]1CN(C)Cc1ccc(C(=O)Nc2ccccc2N)cc1
→ 20	15
[28] CO[C@@H](CN(C)S(=O)(=O)c1ccc(C)cc1)[C@H](C)CN([C@H](C)CO)S(=O)(=O)c1cccc(Cl)c1
→ ?	.
[29] Cc1ccc(-c2ccc3c(c2)O[C@@H](CN(C)C(=O)C2CCC2)[C@H](C)CN([C@@H](C)CO)S3(=O)=O)cc1
→ -30	-26
[30] O=C(Nc1ccc(Cl)cc1)N[C@H]1CC[C@H](CCNC(=O)c2cc(Cl)cc(Cl)c2)O[C@@H]1CO
→ -19	-13
[31] CC(=O)N(C)C[C@H]1Oc2ncc(-c3cccnc3)cc2C(=O)N([C@@H](C)CO)C[C@H]1C
→ 26	2
[32] CNC[C@H]1Oc2c(NC(=O)Nc3ccc(OC)cc3)cccc2C(=O)N([C@@H](C)CO)C[C@H]1C
→ 4	3
[33] CCCc1cn(CC[C@H]2CC[C@H](NC(=O)CCN3CCCCC3)[C@H](CO)O2)nn1
→ 1	-1
[34] COCC(=O)Nc1ccc2c(c1)C(=O)N(C)C[C@@H](OC)[C@H](C)CN(C(=O)c1cnccn1)[C@H](C)CO2
→ 6	7
[35] COc1ccc(S(=O)(=O)Nc2ccc3c(c2)C(=O)N([C@H](C)CO)C[C@@H](C)[C@H](CN(C)C)OCCCC[C@@H](C)O3)cc1
→ 30	9
[36] O=C(CC1CC1)Nc1ccc2c(c1)[C@@H]1C[C@@H](CC(=O)NC3CCCC3)O[C@H](CO)[C@@H]1O2
→ 7	7
[37] COc1ccc(S(=O)(=O)N(C)C[C@@H]2Oc3ccc(NC(=O)Nc4c(C)noc4C)cc3C(=O)N([C@H](C)CO)C[C@H]2C)cc1
→ 15	8
[38] C[C@H]1CN([C@@H](C)CO)C(=O)Cc2cc(NC(=O)CCCCCC(=O)Nc3ccccc3N)ccc2O[C@@H]1CN(C)Cc1ccc(-c2ccccc2)cc1
→ -23	-12
[39] O=C(C[C@@H]1C[C@H]2c3cc(NC(=O)Nc4ccc(C(F)(F)F)cc4)ccc3O[C@H]2[C@@H](CO)O1)NCc1ccc(Cl)cc1
→ -3	5
[40] C[C@H](CO)N1C[C@H](C)[C@H](CN(C)Cc2ccc(C(F)(F)F)cc2)Oc2ccc(NC(=O)CCCN(C)C)cc2C1=O
→ -8	-1
[41] C[C@H](CO)N1C[C@H](C)[C@H](CN(C)CC2CC2)Oc2cc(-c3ccccc3)ccc2S1(=O)=O
→ 7	-6
[42] CCCCNC(=O)c1ccc(C#CC(C)(C)C)c(OC(C)=O)c1
→ 13	-1
[43] CN(C)C(=O)C[C@@H]1C[C@H]2c3cc(NC(=O)NC4CCCC4)ccc3O[C@H]2[C@H](CO)O1
→ 7	8
[44] C[C@H](CO)N1C[C@H](C)[C@@H](CN(C)C(=O)Nc2cc(F)ccc2F)Oc2cc(C#CC3CCCC3)ccc2S1(=O)=O
→ ?	.
[45] CO[C@@H]1CN(C)C(=O)c2cc(NC(=O)c3ccccc3F)ccc2OC[C@H](C)N(CC2CCOCC2)C[C@H]1C
→ -6	2
[46] C[C@H]1CN([C@@H](C)CO)C(=O)c2c(c3ccccc3n2C)-c2ccccc2CO[C@H]1CN(C)C(=O)Nc1ccccc1C(F)(F)F
→ ?	.
[47] C[C@H]1CN([C@@H](C)CO)C(=O)Cc2cc(NC(=O)NC3CCCCC3)ccc2O[C@@H]1CN(C)Cc1ccc(C(=O)O)cc1
→ 19	12
[48] C[C@@H]1CN([C@@H](C)CO)S(=O)(=O)c2ccc(C#Cc3ccccn3)cc2O[C@@H]1CN(C)C(=O)C1CC1
→ -13	-5
[49] C[C@H](CO)N1C[C@H](C)[C@@H](CN(C)C(=O)CC2CC2)Oc2cc(-c3cncnc3)ccc2S1(=O)=O
→ 18	9
[50] COc1ccc(NC(=O)N(C)C[C@@H]2OCCCC[C@@H](C)Oc3ccc(NC(=O)NC(C)C)cc3C(=O)N([C@H](C)CO)C[C@H]2C)cc1
→ 9	1
[51] C[C@H]1CN([C@@H](C)CO)C(=O)c2cc(NS(=O)(=O)c3ccccc3)ccc2O[C@H]1CN(C)C(=O)Nc1cccc2ccccc12
→ 17	12
[52] Cc1ccccc1S(=O)(=O)N1C[C@@H]2[C@H](c3ccccc31)[C@@H](CO)N2C(=O)CC1CC1
→ -7	10
[53] C[C@@H]1CN([C@@H](C)CO)C(=O)Cc2cc(NS(=O)(=O)c3cccs3)ccc2O[C@@H]1CN(C)C(=O)Nc1ccccc1
→ 14	17
[54] C[C@H]1CN([C@@H](C)CO)S(=O)(=O)c2ccc(-c3ccccc3)cc2O[C@@H]1CN(C)C(=O)CN(C)C
→ -6	-4
[55] O=C(c1ccccc1F)N1C[C@@H]2O[C@@H](CNS(=O)(=O)c3ccccc3)CC[C@@H]21
→ 3	2
[56] C[C@H]1CN([C@@H](C)CO)C(=O)c2cc(C3=CCCC3)cnc2O[C@@H]1CN(C)Cc1ccccc1C(=O)O
→ 18	8
[57] COc1cccc(-c2ccc([C@H]3[C@H]4CN(CC5CCOCC5)CCCCN4[C@H]3CO)cc2)c1
→ 3	-3
[58] COCC(=O)N1CCC2(CC1)CN(C(=O)c1ccccn1)[C@H](CO)c1c2c2ccc(OC)cc2n1C
→ 26	17
[59] COc1ccc(S(=O)(=O)N[C@@H]2CC[C@H](CC(=O)N3CCC(Cc4ccccc4)CC3)O[C@H]2CO)cc1
→ -18	-9
[60] COCC(=O)Nc1ccc2c(c1)OC[C@@H](C)N(Cc1ccccn1)C[C@H](C)[C@H](OC)CN(C)C2=O
→ 7	4

Three entries out of the list, sorted by molar mass, lowest first.
Values run as follows: Vaccinia stage	Vaccinia stage Venus
[52] Cc1ccccc1S(=O)(=O)N1C[C@@H]2[C@H](c3ccccc31)[C@@H](CO)N2C(=O)CC1CC1
→ -7	10
[60] COCC(=O)Nc1ccc2c(c1)OC[C@@H](C)N(Cc1ccccn1)C[C@H](C)[C@H](OC)CN(C)C2=O
→ 7	4
[56] C[C@H]1CN([C@@H](C)CO)C(=O)c2cc(C3=CCCC3)cnc2O[C@@H]1CN(C)Cc1ccccc1C(=O)O
→ 18	8

Laid out differently: results already given.
26. O=C(C[C@@H]1C[C@H]2c3cc(NC(=O)C4CCOCC4)ccc3O[C@H]2[C@H](CO)O1)NCc1ccc(Oc2ccccc2)cc1
- Vaccinia stage = -30
- Vaccinia stage Venus = -25
27. C[C@H]1CN([C@@H](C)CO)C(=O)c2cccc(NC(=O)C3CCOCC3)c2O[C@H]1CN(C)Cc1ccc(C(=O)Nc2ccccc2N)cc1
- Vaccinia stage = 20
- Vaccinia stage Venus = 15
28. CO[C@@H](CN(C)S(=O)(=O)c1ccc(C)cc1)[C@H](C)CN([C@H](C)CO)S(=O)(=O)c1cccc(Cl)c1
- Vaccinia stage = ?
- Vaccinia stage Venus = .

New compounds follow
Values run as follows: Vaccinia stage	Vaccinia stage Venus
[61] C[C@@H]1CN([C@H](C)CO)C(=O)CCCn2nncc2CO[C@H]1CN(C)C(=O)Nc1ccccc1
→ -8	-5
[62] C[C@H]1CN([C@@H](C)CO)C(=O)Cc2cc(NC(=O)Cc3ccccc3)ccc2O[C@H]1CN(C)CC1CC1
→ 1	2
[63] C[C@H]1CN([C@@H](C)CO)S(=O)(=O)c2ccc(-c3cncnc3)cc2O[C@@H]1CN(C)Cc1ccccc1
→ -20	-23
[64] CO[C@H]1CN(C)C(=O)c2ccc(NC(=O)c3ccccc3F)cc2OC[C@@H](C)N(CC2CCOCC2)C[C@@H]1C
→ -18	-12
[65] C[C@@H]1CN([C@@H](C)CO)C(=O)c2cccc(NS(=O)(=O)c3cn(C)cn3)c2O[C@@H]1CN(C)Cc1ccc(C(=O)O)cc1
→ 16	12
[66] CN(C)CC(=O)N1[C@@H]2Cn3c(ccc(C4=CCCC4)c3=O)[C@H]1[C@@H](C(=O)NCC1CC1)[C@@H]2CO
→ 18	17
[67] COc1ccc(NC(=O)Nc2ccc3c(c2)C(=O)N([C@@H](C)CO)C[C@@H](C)[C@H](CN(C)Cc2ccccc2)OCCCC[C@@H](C)O3)cc1
→ ?	.
[68] C/C=C/c1ccc2c(c1)O[C@H](CN(C)C(=O)NC1CCCC1)[C@H](C)CN([C@@H](C)CO)S2(=O)=O
→ 20	0
[69] C[C@H](CO)N1C[C@H](C)[C@H](CN(C)C)Oc2ccc(NC(=O)CCC(F)(F)F)cc2CC1=O
→ 11	2
[70] CN1C(=O)c2cc(NC(=O)Nc3ccc(Cl)cc3)ccc2OC[C@H]2O[C@H](CC(=O)O)CC[C@@H]21
→ 12	10
[71] CN1C(=O)c2cc(NC(=O)Nc3ccccc3F)ccc2OC[C@@H]2O[C@@H](CC(=O)NCc3ccc(-c4ccccc4)cc3)CC[C@H]21
→ -2	-2
[72] C[C@@H]1CN([C@H](C)CO)S(=O)(=O)c2ccc(C#Cc3ccc(F)cc3)cc2O[C@@H]1CN(C)C(=O)CN(C)C
→ ?	.
[73] C[C@H]1CCCCO[C@@H](CN(C)C(=O)Nc2ccc(C(F)(F)F)cc2)[C@@H](C)CN([C@@H](C)CO)C(=O)c2cc(N(C)C)ccc2O1
→ -30	-22
[74] CCNC(=O)[C@H]1[C@H](CO)[C@H]2Cn3c(ccc(-c4ccc(OC)cc4)c3=O)[C@H]2N1Cc1ccccc1
→ -22	-10
[75] O=C(Nc1ccc(Cl)c(Cl)c1)N[C@@H]1CC[C@H](CCn2cc(C3CCCCC3)nn2)O[C@@H]1CO
→ 9	5
[76] Cn1cnc(S(=O)(=O)N[C@@H]2C=C[C@@H](CC(=O)N3CCN(c4ccccc4)CC3)O[C@H]2CO)c1
→ 8	-5
[77] COC(=O)[C@H]1[C@H](CO)[C@H]2Cn3c(ccc(-c4cccc(F)c4)c3=O)[C@@H]1N2C(=O)CC1CC1
→ 9	-7
